KCNQ2 enhance: enhances the rat KCNQ2 potassium channel; AID 2239; CHO-K1 KCNQ2, FluxOR thallium flux fluorescence; stronger effect = higher value; B-score at 10 µM; 310,000 compounds, 0.54% hits;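 active = fluorescence ratio B-score at least 3 SD of library B-scores, with initial fluorescence B-score within 3 SD, cut at about 5.3 in these data; same plate scores as AID 2156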;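 note: B-score of peak minus minimum over baseline fluorescence ratio after K+ and Tl+ stimulus; positive B-score means potentiation of KCNQ2 with more thallium influx and brighter signal; only the inactives scoring about 0 or higher are listed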
Target sequence (O88943 whole entry, looked up): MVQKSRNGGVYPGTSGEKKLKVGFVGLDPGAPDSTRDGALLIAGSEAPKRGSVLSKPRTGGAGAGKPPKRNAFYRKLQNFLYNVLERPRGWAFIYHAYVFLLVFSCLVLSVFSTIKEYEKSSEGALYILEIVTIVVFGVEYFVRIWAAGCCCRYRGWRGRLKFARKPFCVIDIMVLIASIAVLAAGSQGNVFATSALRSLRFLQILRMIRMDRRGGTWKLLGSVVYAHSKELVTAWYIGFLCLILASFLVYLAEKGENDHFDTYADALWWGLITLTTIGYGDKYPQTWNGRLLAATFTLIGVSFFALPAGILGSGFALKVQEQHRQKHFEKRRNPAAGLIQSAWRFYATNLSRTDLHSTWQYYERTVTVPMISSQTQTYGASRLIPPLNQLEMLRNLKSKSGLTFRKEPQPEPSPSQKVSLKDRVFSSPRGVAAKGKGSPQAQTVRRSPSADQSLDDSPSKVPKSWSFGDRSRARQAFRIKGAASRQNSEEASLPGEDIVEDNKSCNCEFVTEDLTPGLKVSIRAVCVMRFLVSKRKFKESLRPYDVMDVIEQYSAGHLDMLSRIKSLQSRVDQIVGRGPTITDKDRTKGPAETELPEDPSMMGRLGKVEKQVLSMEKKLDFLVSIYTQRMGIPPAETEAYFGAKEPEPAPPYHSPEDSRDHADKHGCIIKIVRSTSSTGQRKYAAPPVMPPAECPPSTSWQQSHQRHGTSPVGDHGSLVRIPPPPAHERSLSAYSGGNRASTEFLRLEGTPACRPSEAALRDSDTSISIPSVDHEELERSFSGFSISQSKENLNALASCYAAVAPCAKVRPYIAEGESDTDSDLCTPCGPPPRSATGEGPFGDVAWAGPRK
KCNQ2 enhance baseline: second read-out of KCNQ2 enhance, no call of its own (marks repeat the call); B-score; compound at 10 µM; measured here: initial fluorescence intensity artifact check;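 brightness before thallium and not channel activity; 0 = typical well and far values either way flag optical interference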
Numbers without * were called inactive.

SMILES	KCNQ2 enhance	KCNQ2 enhance baseline
Cc1ccccc1C(=O)Nc1ccnn1C1CCN(C(=O)c2cnsn2)CC1	0.16	-1.2
COc1ccccc1CN1CC(C(=O)N2CCCCO2)CCC1=O (stereo not given)	0.27	0.02
Cc1cccnc1NC(=O)c1ccccc1-c1ccccc1C(=O)Nc1ncccc1C	1.8	-0.58
CC(=O)OC1CC2(C)C(=O)CCC2C2CCc3cc(O)ccc3C12 (stereo not given)	0.26	-1.5
CCCCOc1ccc(C(=O)NCc2ccccn2)cc1	0.84	0.19
Nc1nonc1-n1nnc(C(=O)N/N=C/c2cccc(Cl)c2)c1CSc1ccc(Cl)cc1	1.7	-1.4
O=C(COC(=O)Cc1ccc(F)cc1)NC(=O)c1ccccc1	1.8	0.88
OCCN1CCN(Cc2ccc3ccccc3c2)CC1	0.57	0.78
C/C(N)=C(/C#N)C(=O)CSc1nnc(-c2ccc(OC(F)F)cc2)o1	0.57	-3.9
COc1ccc(NC(=O)CN(C)S(=O)(=O)c2cnc[nH]2)cc1OC	1.6	0.44
O=C(NC(=S)N1CCc2ccccc21)C1CCC1	0.25	-0.41
O=C(Nc1nccs1)c1cccc(NC(=O)C2CC2)c1	2.1	0.25
Cc1ccc2cc(CCNC(=O)CCCc3ccccc3)c(=O)[nH]c2c1	0.57	0.95
Cc1cc(NS(=O)(=O)c2ccc(NC(=O)C(C(C)C)N3C(=O)c4ccccc4C3=O)cc2)nc(C)n1 (stereo not given)	0.27	0.15
CC(=O)NC(CC(=O)NNC(=O)c1cc2ccccc2cc1O)c1ccccc1 (stereo not given)	0.01	-1.3
CC1CCC(=O)N(CCC#N)CC1 (stereo not given)	0.21	5.3
Cc1cccc(C)c1OCCOC(=O)c1n[nH]c2ccccc12	0.53	0.6
O=[N+]([O-])c1cc(S(=O)(=O)N2CCCC2)ccc1NN=C1CCCC1	1.3	0.45
COc1ccc(N(CC(=O)Nc2nccs2)S(=O)(=O)c2c(C)[nH]c(=O)[nH]c2=O)cc1	1.1	-1.4
COc1ccc(/C=C2\SC(=S)N(NS(=O)(=O)c3ccc(C)cc3)C2=O)c(OC)c1	1.3	0.39
CCNC(=S)N1CCN(c2ccccc2OCC)CC1	0.03	-0.22
CN1CCSc2ccc(C(=O)Nc3ccc(Cl)cc3)cc21	1.6	0.6
Cc1ccc(-c2nnn(CC(=O)N(c3ccccc3)C(C(=O)NCC3CCCO3)c3cccs3)n2)o1 (stereo not given)	0.03	0.66
COc1cc(/C=C2/SC(=S)N(CC(=O)O)C2=O)ccc1OC(=O)c1cccs1	1.2	-0.79
Cc1ccc(NC(=O)Cn2c(CCC(=O)O)ccc2-c2ccc(Cl)cc2)cc1	1.7	0.54

(next part)
SMILES	KCNQ2 enhance	KCNQ2 enhance baseline
Cc1ccc(NC(=O)c2ccc3c(SCC(=O)O)c4c(nc3c2)CCCC4)c(Br)c1	1.4	2.4
CCc1cc(=O)oc2c3c(cc(OCC(=O)NCCCOC)c12)OC(C)(C)CC3	0.74	-2.3
Oc1ccc(Nc2ncnc3ccccc23)cc1	3	-1.1
Cc1ccc(NC(=O)Cn2cccc2)cc1C	1.1	-1.6
COc1ccc(NS(=O)(=O)c2cc(-c3nnnn3C)ccc2OC)cc1	0.3	-1.5
CC(=O)c1sc(N/N=C/c2cccc([N+](=O)[O-])c2)nc1C	0.51	1.2
CCN1C(=O)C(O)(CC(=O)c2cc(C)ccc2C)c2ccccc21 (stereo not given)	1.2	0.56
COc1ccc(-n2c(C)cc(C(=O)CN3C(=O)c4ccccc4C3=O)c2C)cc1	0.07	-0.77
O=C(c1ccncc1)N(Cc1ccco1)Cc1cc2ccccc2[nH]c1=O	1.7	-1.1
Cc1nc(CCNC(=O)c2cc(COc3ccc(F)cc3Cl)on2)sc1C	0.3	-0.39
O=C(CN1C(=O)C2C3C=CC(C3)C2C1=O)OCC(=O)c1ccc([N+](=O)[O-])cc1 (stereo not given)	1.2	-0.1
CCC(Sc1nc(C)cc(=O)[nH]1)C(=O)Nc1ccc(Cl)cn1 (stereo not given)	1.8	0.06
O=C(NCCc1ccccc1)C1CCN(c2nc3ccccc3o2)CC1	0.27	0.35
C(=N\Nc1nc2ccccc2[nH]1)/c1ccc2ncccc2c1	0.72	1
O=C(c1ccc(S(=O)(=O)NCc2ccco2)cc1)N1CCN(Cc2ccc3c(c2)OCO3)CC1	1	0.13
O=C(O)/C=C/C(=O)Nc1ccc(NC(=O)c2ccccc2)c(Cl)c1	0.18	0.04
Cc1ccc(SCC(=O)N(C)CC(=O)Nc2cccc(F)c2)cc1	0.69	-0.52
Cc1ccccc1OCC(=O)OCn1nnc2ccccc2c1=O	1.2	0.72
Cc1nn(Cc2ccc(Cl)cc2Cl)c(C)c1NC(=O)C1C2CCC(O2)C1C(=O)O (stereo not given)	1.3	0.44
O=C(NC(Nc1ccc(F)cc1)(C(F)(F)F)C(F)(F)F)c1cccnc1	0.98	0.05
O=C(NCc1ccccn1)c1ccc(OC2CCN(Cc3ccc(Cl)s3)CC2)cc1	0.16	0.05
Cc1nc(NC(=O)c2ccccc2)sc1-c1csc(N)n1	0.49	-0.31
O=C(C[n+]1cccc(Br)c1)c1ccc(-c2ccccc2)cc1	1.8	-0.76
Cc1csc(NC(=O)Nc2ccccc2[N+](=O)[O-])n1	0.78	-0.39
COc1cccc(Nc2nc(NCCO)nc(N3CCCC3)n2)c1	1.1	0.03

(listing goes on)
SMILES	KCNQ2 enhance	KCNQ2 enhance baseline
Cc1ccc(C(C(=O)NC2CCCCC2)N(C(=O)c2csnn2)c2ccccc2F)o1 (stereo not given)	0.1	0.6
CCN(CC)CCNC(=O)C(Oc1ccccc1)Oc1ccccc1	0.8	-0.45
Cc1cc(NC(=O)c2ccno2)no1	0.22	-0.73
C#CCO[C@@H]1C[C@H](n2cnc3c(NC(=O)c4ccccc4)ncnc32)O[C@@H]1CO	1.3	0.11
Fc1ccc(CN2CCSCC2)cc1F	1.1	0.59
COC(=O)c1coc(-c2ccc(C)cc2)c1C(=O)OC	1.4	0.55
CC(C)(C)C1CCC(=O)C(C2(O)C(=O)Nc3ccccc32)C1 (stereo not given)	0.61	-0.07
Cc1cc(NC(=O)CCC(=O)N(CC(=O)NCC2CCCO2)c2ccc(Cl)c(Cl)c2)no1 (stereo not given)	0.69	-1.5
COCCC(=O)N1CCc2ccc(NC(=O)c3ccc(C(F)(F)F)cc3)cc2C1	0.75	0.52
Cc1ccc(-c2nnn(CC(=O)N(CC(=O)NC3CCCCC3)c3ccccc3F)n2)o1	0.84	0.29
Cc1cccc(NC(=S)N=Nc2c(O)[nH]c3ccccc23)c1	0.3	-1.5
CC(C)(C)OC(=O)NNC(=O)NC12CC3CC(CC(C3)C1)C2	0.23	0.9
O=C(Nc1nccs1)C1CC2CCC1C2 (stereo not given)	1.4	-1.9
CCOC(=O)CSc1nnc(CNC(=O)c2cccs2)n1-c1ccccc1	1.8	0.11
CCc1nnc(NC(=O)CSc2nc(-c3ccccc3)c(-c3ccccc3)o2)s1	0.14	2.2
O=C(CN1CCOCC1)Nc1cc([N+](=O)[O-])ccc1Cl	1.3	-2.4
CCOC(=O)N1CCC(NC(=O)C2CCCN(C(=O)c3cc4sccc4n3C)C2)CC1 (stereo not given)	0.63	0.57
COC(=O)c1cc(CSc2nc3ccccc3c(=O)n2C)oc1C	0.68	-1.9
CN1CCN(S(=O)(=O)c2ccc(NC(=S)NC(=O)C3CC3)cc2)CC1	0.39	-0.1
CC(=O)N1CCC(N2CCN(c3ccccc3F)CC2)CC1	0.14	0.77
CCC(C)c1c(O)nc(SCC(=O)N2CCCCC2)[nH]c1=O (stereo not given)	0.84	2.2
COc1cccc(C(=O)NCCSc2ccc(F)cc2)c1	0.13	-0.14
CCCn1c(SCC(=O)c2cc(OC)ccc2OC)nnc1-c1ccco1	1.4	0
OC1CCN(Cc2cccc(Oc3ccccc3)c2)CC1	0.67	-2.1
CCc1nnc(NC(=O)c2cccnc2SC)s1	1.6	0.93

7 structures already listed, arranged by formula weight, highest first:
SMILES	KCNQ2 enhance	KCNQ2 enhance baseline
CCOC(=O)N1CCC(NC(=O)C2CCCN(C(=O)c3cc4sccc4n3C)C2)CC1 (stereo not given)	0.63	0.57
CCc1nnc(NC(=O)CSc2nc(-c3ccccc3)c(-c3ccccc3)o2)s1	0.14	2.2
CCOC(=O)CSc1nnc(CNC(=O)c2cccs2)n1-c1ccccc1	1.8	0.11
C#CCO[C@@H]1C[C@H](n2cnc3c(NC(=O)c4ccccc4)ncnc32)O[C@@H]1CO	1.3	0.11
CN1CCN(S(=O)(=O)c2ccc(NC(=S)NC(=O)C3CC3)cc2)CC1	0.39	-0.1
O=C(CN1CCOCC1)Nc1cc([N+](=O)[O-])ccc1Cl	1.3	-2.4
Fc1ccc(CN2CCSCC2)cc1F	1.1	0.59

The listing continues.
SMILES	KCNQ2 enhance	KCNQ2 enhance baseline
CC(C)CN1C(=O)/C(=C/c2cccs2)NC1=S	12*	2.1*
CC/C(=N\NC(=O)c1ccc(CN(C)S(=O)(=O)c2ccc(C)cc2)cc1)c1ccc(OC(F)F)cc1	0.28	0.7
Cc1ccc(C(C)C)c(OCC(O)CNC2CCCC2)c1 (stereo not given)	0.2	0.37
Nc1n[nH]c(-c2ccccc2)n1	1.7	-0.18
CCOC(=O)c1c(C)n(C)c2ccc(OC)c(NC(=O)CCN3CCC(Cc4ccccc4)CC3)c12	1.8	0.6
Cc1ccc(F)cc1NC(=O)N1CCN(C2c3ccccc3-c3ccccc32)CC1	3.1	0.52
COCCn1c(SCc2ccccc2Cl)nc2c1c(=O)[nH]c(=O)n2C	0.09	0
O=C(O)CCCNC(=O)/C=C/c1ccco1	0.76	0.92
O=c1cc(COc2ncnc3ccccc23)nc2sccn12	0.81	-0.15
COc1ccc(CNS(=O)(=O)c2cccc(S(=O)(=O)N3CCOCC3)c2)cc1	1.9	-0.76
O=C(Cn1cccn1)N1CCCC(N2CCN(Cc3ccc4c(c3)OCO4)CC2)C1 (stereo not given)	0.28	0.57
Cc1cc(C)c(S(=O)(=O)N2CCCC2=O)cc1N(C)S(C)(=O)=O	0.27	1.1
CC(C)n1cc(CN2CCC(C(=O)Nc3ccc(Oc4ccccc4F)cc3)CC2)cn1	1.4	0.24
O/N=C/c1ccnc(SCc2ccc(Cl)cc2)n1	1.1	0.71
COc1ccc(NC(=O)N2CCN(c3cccc(C(F)(F)F)c3)CC2)cc1	0.05	4.3
CCCCOc1ccc(C2CC(=O)N(C)C2=O)cc1 (stereo not given)	0.01	-0.17
CCN(CC)C(=O)CSc1nc2c(sc(=S)n2-c2ccccc2)c(=O)n1-c1ccc(OC)c(OC)c1	0.95	0.09
Cc1ccc(S(=O)(=O)Cc2ccc(C(=O)NCc3cccs3)o2)cc1	0.17	-1.3
COc1ccc(C2NC(=O)NC(C)=C2C(=O)OC2CCCC(C)C2)cc1 (stereo not given)	2.5	-0.56
Nc1ccccc1C(=O)NNC1=C(C(=O)C(F)(F)F)CCC1	6.8*	-1.2*
COc1ccccc1NC(=O)Cn1cnc2sc(C(=O)NCc3ccco3)c(C)c2c1=O	1.6	-0.57
CCc1nnc(NC(=O)c2ccc(S(=O)(=O)N3CCCC(C)C3)cc2)s1 (stereo not given)	0.1	0.15
Cc1ccc(C2CC(=O)Nc3c2ccc2ccccc32)cc1[N+](=O)[O-] (stereo not given)	1.4	0.12
Cc1ccc(S(=O)(=O)c2ccc(Cl)cc2)cc1S(=O)(=O)NC(C)C(=O)O (stereo not given)	0.48	0.08
COc1ccc(S(=O)(=O)N2N=C(c3ccc(NS(C)(=O)=O)cc3)CC2c2ccco2)cc1 (stereo not given)	0.26	-0.73

Profiles, quoted from the list.
O=C(Cn1cccn1)N1CCCC(N2CCN(Cc3ccc4c(c3)OCO4)CC2)C1 (stereo not given) across the screens: KCNQ2 enhance: 0.28; KCNQ2 enhance baseline: 0.57
CC/C(=N\NC(=O)c1ccc(CN(C)S(=O)(=O)c2ccc(C)cc2)cc1)c1ccc(OC(F)F)cc1 across the screens: KCNQ2 enhance: 0.28; KCNQ2 enhance baseline: 0.7

(list continues)
SMILES	KCNQ2 enhance	KCNQ2 enhance baseline
O=C(CCC1CCCC1)Nc1ccc([N+](=O)[O-])cn1	2	0.61
CCOc1ncccc1C(=O)NC(C)CCc1ccccc1 (stereo not given)	2.3	-0.01
CSc1ccc(CNC(C)(C)CO)cc1	0.35	3.2
COC(=O)[C@@H]1CCCN1C(=O)CCc1nnc(C2CCCCC2)o1	0.45	-0.31
Cc1cc(NC(=O)CSCC(=O)Nc2ccc(Cl)c(C(F)(F)F)c2)no1	0.87	0.31
CCOC(=O)C(Sc1cc(C)nc(N)n1)C(C)=O (stereo not given)	0.54	-0.43
O=C1c2ccccc2C(=O)N1CCSC(=S)N1CCOCC1	0.15	-2.9
CNC(=O)[C@@H]1C[C@H]1[C@@H](NC(=O)OCc1ccccc1)c1ccccc1	0.11	0.3
N#Cc1cccc(NC(=O)CSc2ccccc2)c1	0.35	0.84
CC1=C(C(=O)OCC2CCCCC2)C(c2ccc(F)cc2)NC(=O)N1 (stereo not given)	1.3	-1.9
C=CCC(C(=O)OC)(C(=O)OC)c1ccc([N+](=O)[O-])cc1[N+](=O)[O-]	0.55	0.14
CCC1(C)Cc2c(sc3nnn(CC(=O)Nc4ccc(Cl)cc4)c(=O)c23)CO1 (stereo not given)	8.7*	1.1*
CCCCCNc1c(C(=O)OCC)c(=O)[nH]c2ccccc12	0.39	0.26
CCc1ccc(-c2nc(SCC(=O)NC3CC3)n[nH]2)cc1	0.81	0.04
Cc1nc2ccc(NC(=O)CCS(=O)(=O)c3ccc(Cl)cc3)cc2s1	1.4	-0.19
CCCCc1oc2c(c(=O)c1C)C(=O)CC(c1ccccc1)C2 (stereo not given)	0.72	-1.1

A portion of the library. The share of hits here may be higher or lower than overall.
